# A1 inh – inhibitors of the anti-apoptotic protein A1, read as caspase activation; MEF A1-2A-BIM cells, Caspase-Glo 3/7 luminescence, 3 h; percent of clofoctol response, vehicle zero; caspase activation, % (no concentration beside the values); 0.066% of 330,000 active; AID 2462;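 active means over half of replicate activation scores above 10%, or exactly half above 10 with the replicate mean above 10; inconclusive means replicate mean below 10 yet half the replicates above 10; inactive means over half of replicates below 10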;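 further: wells of about 30 µL received 50 nL stock; many hits fall short of the cut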
# RanGTP-Impb inh – inhibitors of RanGTP-importin-beta interaction, primary screen, biochemical, FRET, CFP-Ran, YFP-importin-beta, homogeneous; cell-free CFP-Ran/YFP-importin-beta FRET ratio; inhibition, % (test concentration not listed); 1.1% of 300,000 active;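 active means most replicates above 15%; inconclusive means exactly half above 15%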;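 further: 0% = DMSO wells and 100% = Ran loaded with GDP instead of GTP; wells of about 40 µL received 100 nL stock; the first replicate is given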
# Beta apoptosis – beta cell apoptosis inhibition; protection from apoptosis, % (test concentration not listed); INS-1E cytokine-induced death, ATP luminescence, 48 h; percent of positive-control rescue, neutral wells zero; 0.8% of 300,000 active; AID 435005;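 active means all replicates at 75% or more, or half of them and the mean; inconclusive means half reach 75% but not the mean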;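 further: 0% = cytokine-treated negative control wells and 100% = positive control rescue; higher means more ATP so stronger rescue from cytokine killing; wells of about 40 µL received 100 nL stock; the first replicate is given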
# Calb FLC – affects C. albicans growth with fluconazole; growth inhibition, % (test concentration not listed); 0.57% of 300,000 active; C. albicans CaCi-2 (fluconazole-resistant clinical isolate) + fluconazole, Alamar Blue growth, 48 h;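 active means most replicates above 75%; inconclusive means exactly half above 75%; inactive means most below 75%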;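 further: all wells also contain fluconazole at 8 µg/ml as a sub-toxic cotreatment; 0% = median of DMSO wells and 100% = median of geldanamycin control wells; wells of about 8 µL received 7.5 nL stock; the first replicate is given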
# Vif A3G – HIV-1 Vif–A3G interaction blockers – biochemical, TR-FRET, GST-Vif 1-94, biotin-A3G peptide, dose response retest, primary screen (AID 1117319) | TR-FRET GST-Vif / biotin-A3G peptide binding; higher % means a stronger effect; test concentration not given here; strong numbers were not always called active | inhibition, %, or IC50 in µM where a hit was titrated | 0.57% of 260,000 active;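 active means above the screen mean plus three standard deviations and confirmed in dose response; inconclusive means results disagree or hit not tested in dose response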;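 further: Vif residues 1-94 fused to GST binding biotinylated APOBEC3G peptide 110-148; 0% = full assay without inhibitor and 100% = GST in place of GST-Vif; retest series ran down from 100 µM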
# MLL AF4-AF9 inh – MLL-AF4/AF9 protein interaction inhibition | P42568 | AlphaScreen, biotin-AF4 peptide binding to FLAG-AF9 | inhibition, % at 10 µM | 0.47% of 350,000 active | AID 651704;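 active means every replicate reaching a set inhibition limit, whatever the replicate mean, cut at about 25% in these data; inconclusive means mean inhibition reaches that limit but some replicates miss it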;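 further: 0% = plate neutral control median and 100% = total signal loss; the record names both 10 and 1 µM as test concentration; the first replicate is given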
# Target sequence (P42568 whole entry, looked up): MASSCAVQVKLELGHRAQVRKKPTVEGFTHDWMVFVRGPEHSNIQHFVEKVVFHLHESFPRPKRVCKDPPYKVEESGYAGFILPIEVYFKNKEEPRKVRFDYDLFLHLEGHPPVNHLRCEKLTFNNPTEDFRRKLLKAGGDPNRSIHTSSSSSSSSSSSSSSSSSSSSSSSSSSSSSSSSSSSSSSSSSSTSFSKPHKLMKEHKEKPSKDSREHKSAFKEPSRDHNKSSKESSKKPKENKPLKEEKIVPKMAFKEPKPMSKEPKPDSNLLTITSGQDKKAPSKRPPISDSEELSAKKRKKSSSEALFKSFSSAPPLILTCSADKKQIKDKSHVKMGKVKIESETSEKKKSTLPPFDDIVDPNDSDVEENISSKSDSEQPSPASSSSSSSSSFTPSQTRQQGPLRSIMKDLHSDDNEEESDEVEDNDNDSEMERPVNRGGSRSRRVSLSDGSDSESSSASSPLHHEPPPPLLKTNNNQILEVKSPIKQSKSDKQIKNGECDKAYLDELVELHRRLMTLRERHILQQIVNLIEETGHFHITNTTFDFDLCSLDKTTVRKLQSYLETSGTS
# Ecoli rRNA inh – selective bacterial rRNA inhibition in E. coli; E. coli WT GFP vs humanized-ribosome RFP mutants, fluorescence, 24 h; stronger effect = lower value; DMSO median 0, no signal -100; GFP signal change (wild-type ribosome), % (concentration not given with the values); 1.6% of 350,000 active;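 active means significant combined selectivity score with lowered wild-type GFP, culture density cut under 30%, mutant RFP and density less affected; inactive means any of these conditions unmet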; further: one replicate is shown; some compounds called inactive have numbers as strong as hits
# T cruzi inh – T. cruzi replication inhibition | 1.4% of 300,000 active | inhibition, % (concentration not given with the values) | AID 1885 | T. cruzi beta-gal in NIH3T3, luminescence, 90 h;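 active means mean inhibition across valid replicates above about 55%, limit read from the data; inconclusive means mean below that limit but half or more replicates reach it; inactive means mean below it, under half of replicates reach it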;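 further: signal also drops with host cell toxicity which is not excluded here; 0% = plate median of DMSO wells and 100% = zero luminescence signal; higher percent means less beta-gal luminescence so fewer parasites; stock transfer was 50 nL into about 50 µL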
# Ecoli rRNA inh OD600 – recorded beside Ecoli rRNA inh, whose call it bears; OD600 change, %; measured here: OD600 growth;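 optical density of the mix in the first replicate; 0 = DMSO median and -100 = no signal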
# Ecoli rRNA inh RFP – second read-out of Ecoli rRNA inh, no call of its own (marks repeat the call); RFP signal change, %; measured here: RFP humanized mutant strains;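 first replicate; 0 = DMSO median and -100 = no signal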
# * marks the source's active call; other numbers are inactive results; u = inconclusive; x = no result given. Some of the compounds tested; rates above refer to the full screens.
SMILES,A1 inh,RanGTP-Impb inh,Beta apoptosis,Calb FLC,Vif A3G,MLL AF4-AF9 inh,Ecoli rRNA inh,Ecoli rRNA inh OD600,Ecoli rRNA inh RFP,T cruzi inh
Cc1cc(C)cc(NC(=S)NCCN2CCOCC2)c1,0.5,1.5,-1,1,x,x,14,15,-6.0,2
CCOC(=O)C1=C(C)NC(c2cccs2)C(=O)N1 (stereo unspecified),0.9,-0.2,1,-11,-1%,-0.6,8,5,-0.4,-14
COc1ccc(S(=O)(=O)Nc2ccc(Cl)cn2)cc1,-0.7,u,-3,4,1%,-4.9,14,1,-5.2,5
CN(CC(=O)Nc1cccc(F)c1)C(=O)C1CCN(S(=O)(=O)c2ccc3c(c2)OCCO3)CC1,-0.4,-3.7,x,-6,x,-4.7,-3,-4,0.4,13
CC(=O)c1c(C)nc(Nc2nc3ccccc3s2)nc1C,-7.6,-0.3,7,15,-7%,-4.2,13,5,1.2,3
COc1ccc(NC(=O)C(NS(=O)(=O)c2cccs2)C(C)C)cc1Cl (stereo unspecified),0.2,-0.7,-8,-7,3%,0.8,-6,-14,1.5,9
CC(=O)Nc1ccc(NC(=S)NC(=O)c2ccc([N+](=O)[O-])c(C)c2)cc1,1.9,0.9,-8,-1,x,-1.1,9,13,-1.1,15
CCOC(=O)C1=C(C)N(C)C(=S)NC1c1ccc(Cl)cc1 (stereo unspecified),0.6,-2.7,1,-62,x,3.9,-20,-12,-2.3,-11
CSCCNC(=O)c1ccc2nc(Cc3ccccc3F)oc2c1,0.2,-1.0,x,-2,-1%,0.5,6,7,1.7,-1
COc1ccc(-c2noc(CCC(=O)Nc3cc(Cl)c(OC)cc3OC)n2)cc1,0.4,6.8,-7,-2,-5%,x,x,x,x,6

# Overlap with the part before: 5 compounds, then new ones.
SMILES,A1 inh,RanGTP-Impb inh,Beta apoptosis,Calb FLC,Vif A3G,MLL AF4-AF9 inh,Ecoli rRNA inh,Ecoli rRNA inh OD600,Ecoli rRNA inh RFP,T cruzi inh
COc1ccc(NC(=O)C(NS(=O)(=O)c2cccs2)C(C)C)cc1Cl (stereo unspecified),0.2,-0.7,-8,-7,3%,0.8,-6,-14,1.5,9
CC(=O)Nc1ccc(NC(=S)NC(=O)c2ccc([N+](=O)[O-])c(C)c2)cc1,1.9,0.9,-8,-1,x,-1.1,9,13,-1.1,15
CCOC(=O)C1=C(C)N(C)C(=S)NC1c1ccc(Cl)cc1 (stereo unspecified),0.6,-2.7,1,-62,x,3.9,-20,-12,-2.3,-11
CSCCNC(=O)c1ccc2nc(Cc3ccccc3F)oc2c1,0.2,-1.0,x,-2,-1%,0.5,6,7,1.7,-1
COc1ccc(-c2noc(CCC(=O)Nc3cc(Cl)c(OC)cc3OC)n2)cc1,0.4,6.8,-7,-2,-5%,x,x,x,x,6
NNC(=O)c1sc(-c2ccc(Cl)cc2)cc1N,-0.2,-0.2,1,1,8%,2.3,-8,-14,16,-14
CCCOC(=S)N/C(=N\S(=O)(=O)c1ccccc1)c1ccccc1,-1.2,-4.0,-10,-22,0%,x,x,x,x,-7
O=C1c2cc(O)c(O)cc2S(=O)(=O)C1c1ccccc1 (stereo unspecified),-0.1,-1.6,-2,-5,x,-9.2,5,0,-5.1,-10
O=C(COC(=O)COc1ccc(Cl)cc1)NC1CCCCC1,0.1,-4.1,1,-3,13%,x,x,x,x,-20
CCc1ccc(C(=O)NNC(=O)c2ccc(=O)n(C)n2)cc1,0.0,-1.4,7,6,x,-1.6,26,22,3.3,-5
Cc1csc(C(=O)NCC(=O)NNC(=O)c2cccc(Cl)c2)c1,0.8,0.3,-8,3,x,-0.9,0,-10,3.1,-4
COc1cc(/C=C/C(=O)O)cc(S(=O)(=O)Nc2cccc(S(=O)(=O)N3CCOCC3)c2)c1OC,-0.2,1.2,0,u,x,u,6,4,0.4,-3
CCC(C(=O)NCCCc1ccccc1)c1ccccc1 (stereo unspecified),1.2,-0.1,-1,-5,-2%,x,x,x,x,-1
Cc1csc(SCC(=O)N2CCCC2)n1,0.1,-1.7,2,-5,-8%,x,x,x,x,-10
CCOC(=O)c1c(C)[nH]c(C)c1C(=O)COC(=O)c1cccc(C)c1O,-0.7,-1.8,5,u,8%,x,x,x,x,-13
N#CCCSCc1ccc(C(=O)O)o1,0.5,3.8,-5,-10,2%,x,x,x,x,-8
COc1ccc(Cl)cc1S(=O)(=O)N1CCN(C)CC1,1.3,3.4,-2,-1,-1%,1.3,4,7,0.2,-9
O=C(CN1CCN(c2ccccc2F)CC1)N1CCc2ccccc21,0.2,1.5,2,-7,-13%,2.9,-4,-5,-0.6,-3
O=C(O)CCCn1cc(NC(=O)COc2ccccc2[N+](=O)[O-])cn1,-0.8,-9.4,x,-20,4%,-2.4,15,13,-0.8,-17
O=C1C2CCCN2C(c2ccccc2)N1c1ccc(Cl)cc1 (stereo unspecified),0.7,u,-5,-17,16%,x,x,x,x,-7
O=C(N/N=C/c1cccn1-c1ccccc1)c1ccncc1,-0.2,4.8,-11,-1,-4%,5.7,20,16,0.7,-14
O=C(NCCc1csc(-c2cccnc2)n1)c1ccccc1Br,0.5,1.0,-4,0,-7%,-24,1,-4,-3.4,-13
COc1cc(/C=C/C(=O)NCC2CCCCC2)cc(OC)c1OC,-0.1,-1.2,5,3,x,0.7,6,14,0.1,-1
CCOc1ccccc1NC(=O)CCS(=O)(=O)c1cccc2nsnc12,0.1,-7.0,-3,-5,-1%,1.3,2,-5,-5.6,-6
O=C(CCN1CCOCC1)NNC(=S)NC(=O)c1ccc(Br)cc1,0.6,-2.8,3,-4,x,-1.8,-31,-36,-6.6,9
O=C(O)c1cc(-c2cccc3ccccc23)nc2ccccc12,0.7,4.8,-9,0,x,-5.7,-6,-26,-1.2,-2
Cn1c(N)c(C(=O)COC(=O)c2ccc(Cl)c(S(=O)(=O)N3CCCC3)c2)c(=O)n(C)c1=O,0.1,-3.6,-2,0,26%,2.5,-26*,4.2*,7.0*,-12
CC(C)Cc1ccc(CN2CCCC(NC(=O)c3ccoc3)C2)cc1 (stereo unspecified),-0.9,-4.4,-1,-7,x,3.5,-4,-31,-11,40
CCN(CC)C(=O)Cn1cc(C(=O)C(=O)N2CCN(c3ccc([N+](=O)[O-])cc3)CC2)c2ccccc21,0.3,3.3,15,-2,0%,2.2,-2,3,4.0,7
O=C(OCC(=O)N(Cc1ccccc1)C1CCS(=O)(=O)C1)c1cc2c(s1)CCCC2 (stereo unspecified),0.2,1.5,-7,-11,x,-7.7,x,x,x,-4
CC(C)Oc1ccc(C(=O)NC2CCCCC2)cc1,-2.5,0.1,5,-3,18%,x,x,x,x,-1
CC(=O)/C(N=Nc1cc2c(c([N+](=O)[O-])c1C)C(C)(C)CC2(C)C)=C(\C)O,0.3,-0.8,x,11,-2%,14,-2,4,-1.6,2
O=C1Nc2cccnc2Sc2ccccc21,0.9,-4.6,-9,5,15%,x,x,x,x,6
CSc1cccc(NC(=S)N(CCCN2CCC(C)CC2)Cc2cccs2)c1,1.1,1.6,-1,2,11%,12,-19*,-7.9*,1.8*,17
C=CCN(CC=C)Cc1cc(=O)n2c(-c3ccccc3)csc2n1,1.1,1.4,1,0,x,49*,-3,2,3.9,-5
COc1cc(OC)nc(NC(=O)COC(=O)C2CCCCC2)n1,0.8,-2.0,2,2,u,x,x,x,x,-4
CCOC(=O)C1=C(C)NC(=O)NC1/C(C)=C/c1ccccc1 (stereo unspecified),0.3,1.0,-7,-18,8%,2.1,-13,-17,-0.5,-10
O/N=C/c1ccnc(SCc2ccc(Cl)cc2)n1,-1.4,6.1,x,12,x,-16,-5,7,-0.4,x
COc1ccc(NC(=O)N2CCN(c3cccc(C(F)(F)F)c3)CC2)cc1,-0.2,-1.0,2,23,-2%,x,x,x,x,-13
COc1cc2c(cc1OC)C(c1ccccc1F)OC(=O)C2 (stereo unspecified),-0.1,-1.5,-3,15,-1%,-1.4,12,8,-3.0,-8
O=C(Nc1c(C(=O)C2CC2)oc2ccccc12)c1ccc(Cl)cc1,-0.9,1.1,9,-3,x,x,x,x,x,16
Cn1c(=O)[nH]c(=O)c2c1nc(Sc1nc3ccccc3s1)n2Cc1ccccc1,-0.4,5.4,5,-3,1%,x,x,x,x,17
CCOc1ccccc1Nc1nc2ccccc2n2cnnc12,-0.7,5.4,-2,17,x,1.3,7,14,-0.5,9
CCCCOc1ccc(C2CC(=O)N(C)C2=O)cc1 (stereo unspecified),0.6,2.1,-5,1,6%,x,x,x,x,-6
CCN(CC)C(=O)CSc1nc2c(sc(=S)n2-c2ccccc2)c(=O)n1-c1ccc(OC)c(OC)c1,0.2,7.4,5,39,1%,5.0,0,-2,2.8,46
O=c1cc(COc2ncnc3ccccc23)nc2sccn12,-0.8,0.0,-9,-4,10%,2.0,12,5,-2.7,-11
COc1ccc(CNS(=O)(=O)c2cccc(S(=O)(=O)N3CCOCC3)c2)cc1,-0.5,1.4,3,11,0%,-4.9,0,-2,-0.7,-11
O=C(Cn1cccn1)N1CCCC(N2CCN(Cc3ccc4c(c3)OCO4)CC2)C1 (stereo unspecified),x,-1.2,x,-15,x,1.5,10,8,-1.9,-3
COc1ccc(/C=C/C(=O)Nc2c(C)nn(C)c2C)cc1COc1ccc(Br)cc1,1.1,1.2,28,u,0%,x,x,x,x,31
Cc1cc(C)c(S(=O)(=O)N2CCCC2=O)cc1N(C)S(C)(=O)=O,-0.2,-0.4,x,0,x,0.2,13,12,0.7,5
CC(C)n1cc(CN2CCC(C(=O)Nc3ccc(Oc4ccccc4F)cc3)CC2)cn1,0.1,0.2,21,-7,x,4.4,4,2,0.8,28
CCOC(=O)C1(CCCc2ccccc2)CCN(C(=O)c2cc(C)nn2CC)CC1,0.1,-1.5,8,3,x,0.8,-3,4,-4.6,5
O=C(c1ncc[nH]1)c1ccccc1Cl,0.1,0.4,-8,-2,-6%,-8.9,11,12,4.0,6
COc1cccc(Oc2ccc(N/C=C/C(=O)C(C)(C)C)cc2)c1,0.9,3.2,-5,-19,-3%,-1.7,-5,10,1.0,22
Cc1ccc(F)cc1NC(=O)N1CCN(C2c3ccccc3-c3ccccc32)CC1,0.5,-1.2,4,-42,u,7.0,0,3,4.0,30
COCCn1c(SCc2ccccc2Cl)nc2c1c(=O)[nH]c(=O)n2C,0.4,-1.9,1,-7,-2%,x,x,x,x,-6

# Screening results deposited in PubChem BioAssay by several laboratories.
